Assay outcomes deposited in PubChem by National Center for Advancing Translational Sciences (NCATS).
VACV Venus inh = qHTS for Stage-Specific Inhibitors of Vaccinia Orthopoxvirus: Venus Reporter Primary qHTS; Potency, µM (top dose mostly 36.5 µM), for the others: top-dose activity change, negative = inhibition, actives largely listed as inhibitors; Vaccinia virus Venus reporter expression, fluorescence; actives 0.46% (n = 330,000); active means well fitted inhibition curve with a large enough effect; inconclusive means small, poorly fitted or top-dose-only effect; inactive means no such curve, though single readings can be large or run the other way; tested in A549 cells; note: nearly all actives have a fitted effect of over 30% in size; inactives centre near -10
Vaccinia mCherry = qHTS for Stage-Specific Inhibitors of Vaccinia Orthopoxvirus: mCherry Reporter Primary qHTS | Vaccinia virus mCherry reporter infection, fluorescence; about a quarter of the inactives have no number | Potency, µM (series often up to 36.5 µM), for inactives: at the top dose activity change, negative = inhibition, actives largely listed as inhibitors | actives 0.63% (n = 310,000); active = well fitted inhibition curve with a large enough effect; inconclusive = small, poorly fitted or top-dose-only effect; inactive = no such curve, though single readings can be large or run the other way; tested in A549 cells; note: nearly all actives have a fitted effect of over 35% in size; inactives centre near -10
An asterisk follows results filed as active; i = inactive; ? = inconclusive; · = not tested or not shown; [ ] = another dose, or the depositor's remark. % is set by controls: 0 for no effect and ±100 for the full control effect; potency is the fitted concentration of half-maximal effect.

SMILES	VACV Venus inh	Vaccinia mCherry
CN(C)CCNC(=O)C1Cc2c(-c3ccccc3Oc3ccccc3)ccnc2O1 (configuration not stated)	-24.5%	-7.2%
CC(=O)Nc1ccc(S(=O)(=O)NCCC(=O)Nc2ccc(C)cn2)cc1	-22.5%	-27.4%
CCn1c(SCC(=O)NCc2ccc3c(c2)OCO3)nnc1-c1ccco1	-5.4%	-1.1%
N#Cc1cnn2c(C(F)(F)F)c3c(nc12)CCCC3	-19.2%	i
O=S(=O)(c1ccc(Cl)cc1)N1CCCC1c1cccnc1 (configuration not stated)	0.7%	-7.5%
Cc1onc(-c2ccccc2)c1C(=O)OCC(=O)N1CCCCC1	-13.5%	-13.6%
CN(Cc1ccccc1)C(=O)COC(=O)c1ccc[nH]c1=O	-8.1%	-4.8%
CCc1nc2ccc(C(=O)NCCCn3ccnc3)cn2c1N(C)Cc1ccc(OC)cc1	-1.9%	i
O=C(Cn1c2ccccc2c2nc3n(c(=O)c21)CCCS3)Nc1ccccc1	-8.0%	-12.2%
C/C(CC(=O)Nc1ccc2c(c1)OCCO2)=N\NC(=O)c1ccc([N+](=O)[O-])cc1Cl	0.9%	?
CN(C)c1ccc(/C=N/NC(N)=S)cc1[N+](=O)[O-]	3.98µM*	3.55µM*
Cc1cccc(C(=O)NNC(=O)c2cccc([N+](=O)[O-])c2)c1	-7.5%	-9.2%
COc1ccc(NC(=O)C(c2ccccc2)N(C)C(=O)c2cnccn2)cc1 (configuration not stated)	-10.0%	i
c1ccc2[nH]c(CSc3nnc(-c4ccncc4)o3)nc2c1	?	·
CCN1CCN(c2nc3c(C)cccn3c(=O)c2/C=C(\C#N)S(=O)(=O)c2ccccc2)CC1	-22.1%	-5.9%
O=C(O)c1cccc(NC(=O)C23CC4CC(C2)CC(n2cnc(Cl)n2)(C4)C3)c1	-8.9%	·
NC(=O)CC(NC(=O)Cc1cccc2ccccc12)c1ccc(NCc2cc(F)ccc2F)c([N+](=O)[O-])c1 (configuration not stated)	?	?
O=C(Nc1ccc(F)c(Cl)c1)Nc1nnc([C@H]2C[C@H](O)[C@@H](CO)O2)s1	0.7%	30.1%[activator]
COCCNC(=O)CN1C(=O)c2cccnc2Oc2ccc(Cl)cc21	10.9%	12.8%
Cc1cccc(C)c1-n1nnnc1C(c1ccccc1)N1CCC2(CC1)C(=O)NCN2c1ccccc1 (configuration not stated)	-7.0%	6.6%
COc1ccc(CCC(=O)OCC(=O)Nc2c(C)nn(-c3ccccc3)c2C)cc1	-2.5%	i
COc1ccccc1NC(=O)CN1C(=O)C2(SCC(=O)N2c2ccc(F)c(F)c2)c2ccccc21 (configuration not stated)	2.2%	-5.5%
CC(C)CNS(=O)(=O)c1ccc(NC(=O)Cn2nc(-c3ccc(F)cc3)ccc2=O)cc1	?	-43.7%
Cn1c(=O)c2c(nc(-c3ccc(N(CCCl)CCCl)cc3)n2C)n(C)c1=O	-22.2%	?
COC(C[C@H]1O[C@H]1C(=O)[C@@H](C)OCc1ccccc1)OC	-1.2%	i
CCSc1nc2c(c(=O)n1-c1ccc(F)cc1)SCC2	-14.1%	-16.8%
O=C(COc1ccccc1)Nc1cc(C(F)(F)F)ccc1N1CCCC1	?	·
COc1cccc(NC(=O)C(=O)NCCc2csc(-c3ccc(C)cc3)n2)c1	2.0%	-0.4%
Cc1nonc1OCCn1nnnc1N	-5.0%	i
COc1ccc(CCNC(=O)CCc2cc(OC)c(OC)c(OC)c2)cc1OC	7.6%	i
COc1ccc(C#Cc2c(-c3ccccc3)n(-c3ccccc3)c3ccc(CO)cc23)cc1	?	-13.5%
COc1ccc(NC(=O)CCS(=O)(=O)c2ccc3nc(C)sc3c2)cc1OC	-8.5%	i
Cc1c(N(C)S(=O)(=O)c2cc(C(=O)Nc3ccccn3)ccc2Cl)c(=O)n(-c2ccccc2)n1C	-8.8%	-14.8%
CCOc1ccccc1NC(=O)c1cn(C2CCCC2)c(=O)c2c1c1ccccc1n2C	-9.9%[7.34 µM]	-11.6%[7.34 µM]
CC(SCC(=O)O)c1nc2ccccc2[nH]1 (configuration not stated)	4.0%	i
O=C(CCCCCN1C(=O)[C@@H]2Cc3ccccc3CN2C1=O)Nc1cccc(F)c1	-8.0%	i
CCN(CC)S(=O)(=O)c1ccc(C(=O)Nc2cccc(C)c2)cc1	-28.6%	i
Cc1ccc(/C=C2/C(=O)N=C(N)N2C)s1	-8.6%	-18.1%
CCNc1ncnc2c1cnn2C	-8.6%	-5.3%
Nc1nc2ccc(Cl)cc2o1	-11.4%	i
CN(C)C(CNC(=O)CSc1nc2ccccc2c(=O)n1Cc1ccco1)c1ccccc1 (configuration not stated)	-5.8%	-10.3%
CC(C)[C@@H](N)C(=O)N/N=C/c1ccc2ncccc2c1	-2.4%	-11.4%
CCCCC[C@H]1CN(Cc2ccc(OC)cc2)C(=O)[C@@H]1CC(=O)NCc1ccccc1	?	-36.0%
COc1cccc(NC(=O)CN(C)CC(=O)Nc2ccc(C)c([N+](=O)[O-])c2)c1	-3.0%	-29.6%
COc1ccc(C(=O)NCC2CCCN2S(=O)(=O)c2cccs2)cc1 (configuration not stated)	-18.5%	-9.8%
OC1CCN(c2c3c(nc4cc(-c5ccc(Cl)cc5)nn24)CCC3)CC1	-22.9%	·
COc1cc(N(C(=O)Cc2cccs2)C(C(=O)NC2CCCCC2)c2ccc(C)cc2)ccc1-n1cnnn1 (configuration not stated)	-0.2%	-7.0%
COc1cc(-c2cc(C)c3c(OC)ccc(OC)c3n2)cc2c1OCCN(C(=O)C(C)c1n[nH]c(=O)c3ccccc13)C2 (configuration not stated)	-3.6%	-11.3%
C=C(C)CSc1nc2sc3c(c2c(=O)n1Cc1ccccc1)CC(C)(CC)OC3 (configuration not stated)	-4.7%	-8.9%
O=C(CSc1nnc(NC(=O)c2ccccc2)s1)NC1CCCC1	4.5%	-2.6%
Cc1nnc(SCc2nnc(-c3ccc(Cl)cc3)o2)n1-c1ccccc1	0.0%	i
CCn1c(=O)c(C(=O)Nc2ccccc2S(N)(=O)=O)c(O)c2ccccc21	-16.6%	·
COc1ccccc1NS(=O)(=O)c1cccc(C(=O)N/N=C2\CC(=O)CC(C)(C)C2)c1	-3.2%	-17.4%
CCOC(=O)c1c(C)[nH]c(C(=O)OCC(=O)NCc2ccc(OC)c(OC)c2)c1C	-27.4%	-12.5%
CS(=O)(=O)Nc1cccc(-c2cc(NC=O)c3ncc(-c4ccc(F)c(Cl)c4)n3c2)c1	?	?
CC(Nc1ccc(-c2nc(-c3ccncc3)no2)cc1[N+](=O)[O-])c1ccccc1 (configuration not stated)	-13.2%	-11.8%
CNC[C@H]1Oc2c(NC(=O)c3ccc(-c4nccs4)cc3)cccc2C(=O)N([C@@H](C)CO)C[C@@H]1C	?	-17.6%
COCCN(C(=O)CNC(=O)c1ccco1)C(C(=O)NC1CCCC1)c1cccc(OC)c1 (configuration not stated)	-3.1%	-3.1%
Cc1ccc(CN(C)C(=O)COC(=O)CSc2ccc([N+](=O)[O-])cc2)cc1	-10.4%	-6.0%
CC(=O)[C@@H]1[C@@H]2C(=O)N(c3ccccc3F)C(=O)[C@@H]2[C@H]2c3ccccc3C=NN12	-7.7%	-11.6%

Next entries.
SMILES	VACV Venus inh	Vaccinia mCherry
C=CCN(c1cccc(C(F)(F)F)c1)S(=O)(=O)c1cccc(C(=O)OCC(=O)NC)c1	-3.8%	i
O=C(/C=C/c1cccc(Br)c1)NCC1CCCCC1	-4.9%	-15.1%
CCOc1ccc(CCNC(=O)COC(=O)C2CCN(S(=O)(=O)c3ccc(C)c(C)c3)CC2)cc1OCC	-3.5%	i
O=C(CSc1nnnn1-c1cccc2ccccc12)Nc1ccc(N2CCOCC2)c(Cl)c1	-13.8%	-22.6%
Cc1cc(C)cc(NC(=O)C2CCCN(S(=O)(=O)c3cccc4nsnc34)C2)c1 (configuration not stated)	-22.2%	?
C=CCN(c1ccc(C(=O)Nc2ccc3c(c2)OCO3)cc1)S(C)(=O)=O	-1.1%	1.7%
C[C@]12CCC(=O)C=C1CCC1C2CC[C@@]2(C)C1CC[C@]2(C)O (some centres not stated)	-0.2%	i
CCN(CC)CCNC(=O)c1cnn(-c2nccc(-c3cc4ccccc4o3)n2)c1C	-3.8%	-14.4%
Cc1ccc(C(=O)O/N=C(\c2ccccc2)c2ccncc2)cc1	1.9%	-13.9%
COC(=O)c1scc(C)c1NC(=O)CSc1ccc(Cl)cc1	-12.0%	-1.1%
Cc1nn(C)c(C)c1NC(=O)/C(C#N)=C\N(C)C	-10.3%	-3.4%
COc1cccc(-n2cnc3cccc(N)c32)c1	-10.5%	-0.3%
O=C(Nc1ccc2nc(SCC(=O)N3CCCc4ccccc43)sc2c1)c1cccc(F)c1	?	?
O=C(COc1ccccc1C(=O)Nc1ccccc1)Nc1cccc(Br)c1	?	?
CCc1cccc(C)c1NC(=O)Cn1nc(C)c2nn(-c3ccc(Cl)cc3)c(C)c2c1=O	-20.8%	?

Single records, as listed above:
C=CCN(c1cccc(C(F)(F)F)c1)S(=O)(=O)c1cccc(C(=O)OCC(=O)NC)c1 is entered as VACV Venus inh = -3.8%; Vaccinia mCherry = i
O=C(/C=C/c1cccc(Br)c1)NCC1CCCCC1 is entered as VACV Venus inh = -4.9%; Vaccinia mCherry = -15.1%

Structures from the list above that contain a thiophene ring, fused or not, in the order listed:
SMILES	VACV Venus inh	Vaccinia mCherry
Cc1ccc(/C=C2/C(=O)N=C(N)N2C)s1	-8.6%	-18.1%
COc1ccc(C(=O)NCC2CCCN2S(=O)(=O)c2cccs2)cc1 (configuration not stated)	-18.5%	-9.8%
COc1cc(N(C(=O)Cc2cccs2)C(C(=O)NC2CCCCC2)c2ccc(C)cc2)ccc1-n1cnnn1 (configuration not stated)	-0.2%	-7.0%
C=C(C)CSc1nc2sc3c(c2c(=O)n1Cc1ccccc1)CC(C)(CC)OC3 (configuration not stated)	-4.7%	-8.9%
COC(=O)c1scc(C)c1NC(=O)CSc1ccc(Cl)cc1	-12.0%	-1.1%

(continued)
SMILES	VACV Venus inh	Vaccinia mCherry
CCc1ccc(-c2nn(CC(=O)Nc3ccccc3)c3c2cnc2ccc(F)cc23)cc1	3.8%	2.3%
O=C(Nc1cccc(Cl)c1)Nc1sccc1-c1nc2ccccc2s1	1.8%	-0.6%
O=C(NNC(=O)c1ccc2ncccc2c1)c1ccc(Cl)cc1	-6.0%	-3.6%
CC(C)C[C@H](NC(=O)c1nc[nH]c1C(=O)N1CCNCC1)C(=O)OCc1ccccc1	-4.7%	-5.3%
O=C(O)c1cccc(S(=O)(=O)Nc2ccccc2-c2ccccc2)c1	-5.7%	i
COc1ccc(CCNC(=S)Nc2cccc3ccccc23)cc1	4.6%	-11.5%
CCCCCC1CC(COc2ccccc2)OC1=O (configuration not stated)	1.1%	-2.7%
O=C(c1ccc2snnc2c1)N1CCOCC1	-0.2%	i
CCc1ccc(CN(C)Cc2nc(Cc3cccc(C(F)(F)F)c3)no2)nc1	-7.6%	-22.5%
CC(C)(C)C(=O)N1CCC(O)(CS(=O)(=O)c2ccc(Cl)c(Cl)c2)CC1	-4.9%	-15.0%
O=C(/C=C/c1ccc(OC(F)F)cc1)OCC(=O)N1CCN(C(=O)c2ccco2)CC1	-8.2%	i
O=C(Nc1nc(-c2ccc3c(c2)OCO3)cs1)C1CC1	-12.7%	-25.5%
COc1ccccc1-n1c(C)nnc1SCC(=O)NCc1ccccc1	-3.6%	?
O=C(O)c1ccc(NCc2cccnc2)cc1	-4.2%	-8.0%
COc1ccccc1N1CCN(S(=O)(=O)c2c(C)sc3ncn(CC(=O)N(C)c4ccc(C(C)C)cc4)c(=O)c23)CC1	-13.9%	-15.2%
O=C(O)CCCN1C(=O)NC2NC(=O)NC21 (configuration not stated)	-4.5%	·
NC(=O)Cc1nc2scc(-c3ccc(Cl)cc3)c2c(=O)[nH]1	-6.2%	-14.1%
CCOC(=O)c1cn2c(C)cccc2n1	-6.5%	i
COc1cc(OC)cc(-c2c(-c3ccsc3)c3cc(Br)ccc3n2C)c1	-10.3%	-22.7%
COC(=O)N/N=C\c1cc2c(cc1Br)OCO2	-9.9%	-12.8%
CC(=O)c1ccc(NC(=O)Cn2cnc(S(=O)(=O)N3CCCCC3)c2)cc1	0.0%[7.34 µM]	-2.7%[7.34 µM]
Cc1ccc(NC(=O)NC2CC(=O)N(c3ccc4c(c3)OCCO4)C2)c(C)c1 (configuration not stated)	-2.3%	-0.5%
Cc1cc(OCC(=O)NNC(=O)c2cccs2)ccc1Br	17.3%	-24.8%
COc1ccc(/C=C/c2nnc(NC(=O)COc3ccc(Cl)cc3)s2)cc1	-8.0%	11.0%
CN(CC(=O)Nc1ccccc1C(F)(F)F)C(=O)c1cc(Cl)nc2ccccc12	-8.9%	i
CCOc1cc2[nH]c(=S)n(CCC(=O)NCc3ccc(OC)cc3)c(=O)c2cc1OCC	-5.2%	-14.6%
COC(=O)[C@H]1C[C@H](OC(=O)NC2CCCC2)[C@@]2(O)CN(S(=O)(=O)c3ccc(C)cc3)CC2[C@H]1C(=O)OC (some centres not stated)	-13.8%	-14.1%
Cn1c(=O)c2c(nc(SCC(=O)Nc3ccc(F)cc3)n2Cc2ccccc2F)n(C)c1=O	-15.7%	-13.7%
CC(=O)OCCN(CCCn1c(-c2ccncc2)nc2ccccc21)c1nc(-c2ccc(C)cc2)cs1	-9.9%	?
O=C(NCC(=O)N1CCN(c2ccccc2O)CC1)c1ccc(Br)o1	-14.5%	?

Random draw from the library; any-hit rate near 0.87%.
